Measles inh – inhibitors of measles virus growth in infected cells; infected Vero cells, GFP fluorescence, 64 h; hits give low values; z-score (test concentration not listed); 0.1% of 33,000 active;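 active means z-score under -3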;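 further: score is relative to mean and SD of the compound wells of a plate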
Active calls of the source: *.

The opening 14 entries, ahead of the listing:
Measles inh	SMILES
-0.08	COc1cccc(C2C3=C(CC(c4ccccc4)CC3=O)Nc3ccccc3N2C(=O)C2CC2)c1 (stereo unspecified)
-0.45	CCOC(=O)c1sc(NC(=O)c2ccc(Cc3ccccc3)cc2)nc1C
-0.11	COC(=O)C1C(=O)C2=C(CC1C)NC(C)=C(C(=O)OC1CCCC1)C2c1ccc(C)o1 (stereo unspecified)
-1.2	COc1cc(-c2nnc(SCC(=O)N3CCCC3)o2)cc(OC)c1OC
0.19	COc1ccc(-n2c(=O)c3cc4c(=O)n(-c5ccc(OC)cc5[N+](=O)[O-])c(=O)c4cc3c2=O)c([N+](=O)[O-])c1
0.55	CCc1ccccc1N1C(=O)CN(Cc2cc(OC)c(OC)c(OC)c2)C1=S
0.68	COc1cccc(C2=NC(c3ccc(Br)cc3)NC(c3ccccc3O)C2)c1 (stereo unspecified)
-0.46	CCn1c(C)nnc1SCc1ccccc1
0.08	O=C(O)c1ccccc1N1C(=O)c2ccc(Oc3cccc([N+](=O)[O-])c3)cc2C1=O
-0.1	O=C1c2cccc([N+](=O)[O-])c2C(=O)N1c1ccc([N+](=O)[O-])cc1
0.14	Cc1ccc(NC(=O)Cc2c(C(=O)O)[nH]c3ccccc23)cc1F
-0.39	CCOc1ccc(NC(=O)c2cc3cc(OC)ccc3oc2=O)cc1
4.4	O=C(O)c1ccc(N=c2oc3cc(O)ccc3cc2C(=O)NCc2ccccc2)cc1
-0.34	O=C1Nc2c(S(=O)(=O)Nc3ccccc3)cc(S(=O)(=O)Nc3ccccc3)c3cccc1c23

Main list (from the top)
Measles inh	SMILES
-0.08	COc1cccc(C2C3=C(CC(c4ccccc4)CC3=O)Nc3ccccc3N2C(=O)C2CC2)c1 (stereo unspecified)
-0.45	CCOC(=O)c1sc(NC(=O)c2ccc(Cc3ccccc3)cc2)nc1C
-0.11	COC(=O)C1C(=O)C2=C(CC1C)NC(C)=C(C(=O)OC1CCCC1)C2c1ccc(C)o1 (stereo unspecified)
-1.2	COc1cc(-c2nnc(SCC(=O)N3CCCC3)o2)cc(OC)c1OC
0.19	COc1ccc(-n2c(=O)c3cc4c(=O)n(-c5ccc(OC)cc5[N+](=O)[O-])c(=O)c4cc3c2=O)c([N+](=O)[O-])c1
0.55	CCc1ccccc1N1C(=O)CN(Cc2cc(OC)c(OC)c(OC)c2)C1=S
0.68	COc1cccc(C2=NC(c3ccc(Br)cc3)NC(c3ccccc3O)C2)c1 (stereo unspecified)
-0.46	CCn1c(C)nnc1SCc1ccccc1
0.08	O=C(O)c1ccccc1N1C(=O)c2ccc(Oc3cccc([N+](=O)[O-])c3)cc2C1=O
-0.1	O=C1c2cccc([N+](=O)[O-])c2C(=O)N1c1ccc([N+](=O)[O-])cc1
0.14	Cc1ccc(NC(=O)Cc2c(C(=O)O)[nH]c3ccccc23)cc1F
-0.39	CCOc1ccc(NC(=O)c2cc3cc(OC)ccc3oc2=O)cc1
4.4	O=C(O)c1ccc(N=c2oc3cc(O)ccc3cc2C(=O)NCc2ccccc2)cc1
-0.34	O=C1Nc2c(S(=O)(=O)Nc3ccccc3)cc(S(=O)(=O)Nc3ccccc3)c3cccc1c23
-0.32	Cc1cc(NC(=O)Cn2c(=O)n(-c3ccc(F)cc3)c(=O)c3sccc32)n[nH]1
-0.76	Cc1cc(C)nc(NS(=O)(=O)c2ccc(NC(=O)c3cccc(Oc4ccccc4)c3)cc2)n1
-0.25	CC(C)(C)c1ccc(Cn2c(=O)n(CC(=O)NCc3ccco3)c(=O)c3sccc32)cc1
0.15	COc1ccc(NC(=O)c2cccc3c2C(=O)N(Cc2cccnc2)C3)cc1OC
-0.34	C=CCn1c(C=Cc2ccco2)nc2ccccc21
0.04	O=C(CN1CCN(C(=O)c2ccccc2F)CC1)Nc1ccccc1F
1.1	COC(=O)c1ccc2c(=O)n(C(Cc3ccc(O)cc3)C(=O)O)c(=S)[nH]c2c1 (stereo unspecified)
-0.5	CC(C)(c1ccc(O)cc1)c1ccc(Oc2ccc([N+](=O)[O-])cc2)cc1
-0.36	C=CCOC(=O)C1=C(C)NC2=C(C(=O)CC(C)(C)C2)C1c1cc(Br)c(O)c(OC)c1 (stereo unspecified)
0.42	Fc1ccc(CN2CCN(C3CCCCCC3)CC2)cc1
-0.44	CCOC(=O)C1C(=O)C=C(c2cccc(OC)c2)CC1c1cccc(OC)c1OC (stereo unspecified)
0.35	CCCCn1c(=N)n(CC(=O)c2ccco2)c2ccccc21
-0.15	O=C(CSc1nnc(-c2ccccc2)n1-c1ccccc1)NC1CC1
0.88	Cc1c(C(=O)N2CCCCCC2)sc2ncn(CC(=O)N3CCCCC3)c(=O)c12
-0.85	O=C1CC(c2ccc(Cl)cc2)CC2=C1C(c1cccc([N+](=O)[O-])c1)Nc1ccccc1N2 (stereo unspecified)
0.92	CCOC(=O)c1c(NC(=O)COc2cccc(Cl)c2)sc2c1CCC(C)C2 (stereo unspecified)
2.1	Cc1ccc(-n2nnnc2SCC(=O)NCCc2ccccc2)cc1C
-1.2	CC(C)(C)c1ccc(C2SCC(=O)N2c2ccc(Cl)cc2)cc1 (stereo unspecified)
0.05	O=c1[nH]cnc2c1cnn2-c1ccccc1
-1	CC(C(=O)Nc1cccc(C(=O)O)c1)N(C)S(=O)(=O)c1ccccc1 (stereo unspecified)
0.07	Cc1cccc(N(CC(=O)Nc2cccc(Cl)c2C)S(C)(=O)=O)c1C
-0.85	CCSc1nc2c(c(=O)[nH]1)C(c1cc(OC)c(OC)c(OC)c1)C1=C(CC(C)(C)CC1=O)N2 (stereo unspecified)
1.1	O=C(OCc1ccccc1)c1cc2ccccc2oc1=O
-0.65	O=C1c2ccccc2C(=O)N1CC#CCN1CCN(C(c2ccccc2)c2ccccc2)CC1
-0.43	Cc1ccc(-c2cc(C(=O)N(C)Cc3cnn(C)c3C)c3cc(Br)ccc3n2)cc1
-0.09	Cc1ccc2c(c1)sc1nc(=O)n(-c3ccc(Cl)cc3)c(=O)n12
-1.9	O=C(Nc1cnc2ccccc2c1)N1CCCCCC1
1.2	COc1cc2[nH]c(=O)n(CCC(=O)N3CCN(Cc4ccccc4)CC3)c(=O)c2cc1OC
-0.5	CCn1c(CCCO)nc2ccccc21
0.17	N#CC1C(=O)NC(=O)C(C(=O)S)C12CCCCC2 (stereo unspecified)
0.93	COc1cc(Br)c(C2C(C(=O)OCCOc3ccccc3)=C(C)NC3=C2C(=O)CC(C)(C)C3)cc1OC (stereo unspecified)
0.85	COC(=O)C1=C(C)N(C)C(=S)NC1c1ccc(OC)cc1 (stereo unspecified)
0.35	CCOC(=O)C1=C(C)NC2=C(C(=O)CCC2)C1c1ccccc1OC (stereo unspecified)
0.17	CSCCC(Nc1ncnc2sc3c(c12)CCCC3)C(=O)O (stereo unspecified)
1.5	CCC1Oc2ccccc2N(CC(=O)NCCN2CCN(Cc3ccccc3)CC2)C1=O (stereo unspecified)
-0.14	Cc1c(C(=O)NC2CCCCC2)oc2ccc(S(=O)(=O)N3CCC(C)CC3)cc12
-0.74	CCOC(=O)c1ccc(NS(=O)(=O)c2cc(Br)cc3c2N(C(C)=O)C(C)C3)cc1 (stereo unspecified)
-0.18	O=C(NCc1ccccc1Cl)c1ccc2c(=O)n(Cc3ccc4c(c3)OCO4)c(=O)[nH]c2c1
-0.43	c1ccc2oc(N3CCCCC3)nc2c1
-0.25	CCOc1cccc2cc(-c3nc(-c4ccc(Br)cc4)cs3)c(=O)oc12
-0.87	COc1cc2c(cc1OC)CC(C)(C)N(C(=O)c1ccccc1Cl)C2
-0.23	CCCNC(=O)Cn1cnc2sc(C(=O)N3CCN(Cc4ccc5c(c4)OCO5)CC3)c(C)c2c1=O
1	CCOc1ccccc1NC(=O)c1nn(-c2ccc(C)cc2)c(=O)c2c1c1ccccc1n2C
0.27	Cc1ccc(C(=O)Nc2ccc(S(=O)(=O)Nc3ncccn3)cc2)cc1[N+](=O)[O-]
0.45	Cc1cccc(NC(=O)C(c2ccccc2)N2CCC2=O)c1 (stereo unspecified)
-0.35	COc1ccc(N2CCN(c3ccc([N+](=O)[O-])cc3C#N)CC2)cc1

Next entries.
Measles inh	SMILES
0.49	CCOC(=O)c1ccc(-c2ccc(-c3c(C#N)c(N)n4c(nc5ccccc54)c3C#N)o2)cc1
-1.7	O=C(c1ccc(N2CC3CC(C2)c2cccc(=O)n2C3)c(NS(=O)(=O)c2cccc(Cl)c2)c1)N1CCCC1 (stereo unspecified)
-0.16	O=C1CCCC2=C1C(c1ccc(Br)cc1)c1c(nc(SCN3CCOCC3)[nH]c1=O)N2 (stereo unspecified)
0.06	COC(=O)c1ccc(C(c2c(C)[nH][nH]c2=O)c2c(C)[nH][nH]c2=O)cc1
-0.55	CCNC(=O)CN(c1ccc(C)cc1)S(=O)(=O)c1ccc(SC)cc1
0.93	COC(=O)c1sc(-c2ccccc2)cc1NC(=O)c1cc(=O)c2ccccc2o1
-1.5	O=[N+]([O-])c1ccc2c(c1)S(=O)(=O)N=C2N1CCCCC1
-0.79	O=C(c1noc2c1CCCCC2)N1CCOCC1
1.8	CCCCNc1c[nH]c(=O)[nH]c1=O
-0.86	CC1=C(C(=O)OCCc2ccccc2)C(c2ccc([N+](=O)[O-])cc2)CC(=O)N1 (stereo unspecified)
-0.35	COc1cccc(C(=O)NCc2n[nH]c(=S)n2-c2ccc(Br)cc2)c1
1.2	O=C(NCCC1=CCCCC1)Nc1ccc2snnc2c1
-0.8	Cc1c(C(=O)Nc2cccc(C(F)(F)F)c2)sc2ncnc(N3CCCCC3)c12
0.4	COc1ccccc1N1CCN(S(=O)(=O)c2c(C)sc3ncn(CC(=O)Nc4ccc(C(F)(F)F)cc4)c(=O)c23)CC1
0.55	O=C(NCCc1ccc(Cl)cc1)c1ccc[nH]c1=S
0.94	CC1CCN(c2cc(NCCCO)c([N+](=O)[O-])c3nonc23)CC1
-0.07	CC(=O)N/C(N)=N\c1nc2cc(C)ccc2o1
-0.52	CCOC(=O)c1c(NC(=O)c2ccccc2F)sc(C(=O)Nc2ccccc2F)c1C
-1.2	C=CCn1c(SCC(=O)c2c[nH]c3ccccc23)nnc1-c1[nH]c2ccc(OC)cc2c1CC
0.55	Cc1ccc(C(=O)C(C)OC(=O)c2cccc(N3C(=O)c4ccccc4C3=O)c2)cc1 (stereo unspecified)
-0.86	COCCn1cc(C(=O)NCCC2=CCCCC2)c2c3ccccc3n(C)c2c1=O
-0.44	CCC(C)OC(=O)C1=C(C)NC2=C(C(=O)C(C(=O)OC)C(C)C2)C1c1ccc(C(F)(F)F)cc1 (stereo unspecified)
-0.24	CC1CCc2cc(F)ccc2N1C(=O)c1ccc(N2CC3CC(C2)c2cccc(=O)n2C3)c(NC(=O)c2cc3ccccc3oc2=O)c1 (stereo unspecified)
-0.64	COc1cc2c(cc1NC(=O)c1c(-c3ccccc3Cl)noc1C)oc1ccccc12
0.15	O=C(NCCCN1CCCC1)c1cccc(N2CCCC2=O)c1
1.3	Cc1ccc(Cl)cc1N1CCN(C(=O)c2cnn3c(C)c(Cc4ccc(Cl)cc4)c(C)nc23)CC1
0.1	O=C(CSc1nnc(-c2ccccc2)o1)N1CCCc2ccccc21
1.7	Cc1ccc(CCNC(=O)CN2C(=O)COc3ccc(S(=O)(=O)N4CCCC4)cc32)cc1
0.57	CCOC(=O)c1cnc2c(ccc3ccccc32)c1Nc1ccccc1O
2.1	CC(NC(=O)c1ccc(CSCc2cccc(Cl)c2)o1)c1ccccc1 (stereo unspecified)
0.32	COc1ccc(Cl)cc1C(=O)Nc1nnc(SCC(=O)Nc2ccc(Br)cc2)s1
0.3	COc1cc(C(=O)Nc2ncc(Cc3cccc(Cl)c3)s2)cc(OC)c1OC
-0.37	COc1cc(C(=O)Nc2nnc(C(C)C)s2)cc(OC)c1OC
-0.4	Cc1ccc(CNC(=O)c2cc(=O)[nH]c3ccc(Br)cc23)cc1
0.67	COC(=O)c1ccc2c(=O)n(CCC3=CCCCC3)c(SCc3cccc([N+](=O)[O-])c3)nc2c1
-1.1	O=C(O)CCn1c(SCC(=O)Nc2nccs2)nc2ccsc2c1=O
-0.04	CC(=O)Nc1nc(-c2cc3cc(Cl)ccc3oc2=O)cs1
-0.16	CCc1ccc(NS(=O)(=O)c2cccc3nonc23)cc1
1.1	CCOC(=O)c1cnc2cc(-c3ccc(C)cc3)nn2c1-c1ccccc1
-0.77	CCOc1ccc(N2C(=O)CC(N3CCSCC3)C2=O)cc1 (stereo unspecified)
-0.69	CCc1cccc(NC(=O)C2(S(=O)(=O)c3ccc(Cl)cc3)CC2)c1
0.56	Cc1ccc(S(=O)(=O)c2nc(-c3ccco3)oc2SCC(=O)NCC2CCCO2)cc1 (stereo unspecified)
-0.52	CC1=C(C(=O)OC2CCCCCC2)C(c2ccc(C)o2)C2=C(CC(C)(C)CC2=O)N1 (stereo unspecified)
0.37	CCOc1ccc(N2C(=O)CC(N3CCOCC3)C2=O)cc1 (stereo unspecified)
0.05	Cc1ccc(C(c2ccc(Br)cc2)c2ccc(C)s2)s1
5.3	CC(=O)Oc1ccc(OC(C)=O)c2c1C(=O)c1ccccc1C2=O
0.55	C=CCNC(=O)c1cccc(NS(=O)(=O)c2ccc(Cl)cc2)c1
0.37	CCOc1cccc2c1OC1(C)CC2NC(=O)N1c1ccc(OC)cc1 (stereo unspecified)
-0.93	O=C(Nc1ccccc1[N+](=O)[O-])c1ccccc1I
-0.71	CC(C)NC(=O)c1cc(Sc2ccc(F)cc2)nc2ccccc12
0.39	c1ccc2c(c1)CCOC2CNCC1COc2ccccc2O1 (stereo unspecified)
1.1	Cc1cc2c(c(=O)[nH]1)C(=O)NC2=O
-1.7	O=[N+]([O-])c1cc(S(=O)(=O)C(F)(F)F)ccc1Cl
0.48	O=C(CCc1nc(-c2cccs2)no1)Nc1ccc(C(F)(F)F)cc1
-0.25	O=C1CCc2cc(S(=O)(=O)NCc3cccs3)ccc2N1
-0.22	COc1ccc(NC(=O)C2=C(C)NC3=C(C(=O)CC(c4ccc(OC)c(OC)c4)C3)C2c2cccc(C(F)(F)F)c2)cc1 (stereo unspecified)
0.16	CCOC(=O)C1C(=O)C=C(c2ccc(OC)c(OC)c2)CC1c1ccc(C)cc1 (stereo unspecified)
-0.3	O=C(c1ccccc1F)N1CCC(N2CCCCCC2)CC1
-0.1	COc1cccc(C(=O)Nc2ccc3nc(N4CCCCC4)cc(C)c3c2)c1

Screens as filed in PubChem BioAssay.

These rows are one share of the data. The share of hits here may be higher or lower than overall.
